UUG fidelity – modulators of start codon recognition fidelity in yeast; AID 602363; actives 0.13% (n = 350,000); activity score, % at 18.7 µM; S. cerevisiae UUG-firefly luciferase reporter, luminescence/redox ratio;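 active = replicate mean at a twofold rise or more, about +100% in these data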;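 note: firefly luciferase made from a UUG start codon reports start codon fidelity; reporter light over untreated wells divided by growth signal over untreated wells; some hits fall short of that in this replicate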
HIV Env fusion – blocks HIV Env-driven cell-cell fusion. AID 651610. actives 1.1% (n = 360,000). inhibition, % at 12.3 µM. HeLa-JRFL Env/CEM21 cell fusion, luciferase;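 active = mean replicate inhibition score of at least 50 and every replicate individually at or above 50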;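 note: 0% = plate neutral controls and 100% = maraviroc near 300 nM; one replicate is shown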
Rce1 inhib – blocks yeast Ras-converting enzyme | Q03530 | yeast membranes, quenched prenylated peptide cleavage fluorescence | calls only | actives 0.27% (n = 290,000) | AID 2563;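 active = fall in fluorescence gain of 50% or more versus controls, with final raw signal at or below 3038400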;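 note: plate controls were neutral control wells for no effect and wells lacking membranes for full effect; tested at 10 µM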
Target sequence (Q03530 whole entry, looked up): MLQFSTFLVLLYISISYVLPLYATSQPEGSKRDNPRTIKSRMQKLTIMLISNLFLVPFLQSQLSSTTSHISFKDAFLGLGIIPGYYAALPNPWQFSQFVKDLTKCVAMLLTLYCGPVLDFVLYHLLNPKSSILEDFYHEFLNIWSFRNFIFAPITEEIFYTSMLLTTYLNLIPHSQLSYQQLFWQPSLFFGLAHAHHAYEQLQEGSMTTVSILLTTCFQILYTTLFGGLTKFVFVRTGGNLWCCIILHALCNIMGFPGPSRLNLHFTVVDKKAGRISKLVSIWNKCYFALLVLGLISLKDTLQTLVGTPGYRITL
CSC inhib – cancer stem cell inhibition | cancer stem cell-like cells viability, luminescence | inhibition, % at 7.5 µM | actives 1.1% (n = 300,000);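 active = mean at 75% or more and at least half the replicates too; tested in HMLE shEcad cells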;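 note: 0% = median of negative and 100% = median of positive control wells; the first replicate is given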
MT1-MMP act inh – MT1-MMP (human) activation inhibition; P50281; HT1080 RFP-PRO-GFP cells, GFP/RFP ratio fluorescence, overnight; percent of plate control window, DMSO zero; GFP/RFP ratio change, % at 20 µM; actives 0.061% (n = 360,000); AID 651647;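 active = GFP/RFP ratio change of at least 30% with cell ATP level not reduced by more than half and red fluorescence within 50% of control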; note: strong numbers were not always called active
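Assay system: HT1080 RFP-PRO-GFP cells | Dosing: 20 µM single dose, 1% DMSO | Incubation: Cells overnight before dosing, compound overnight, 37 °C, 5% CO2 | Evaluation: GFP/RFP fluorescence ratio | Control set: DMSO-only wells and HT1080 RFP-L50D-GFP cell wells as references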
PABP FP inh – blocks human PABP binding to poly(A) RNA. P11940. actives 1% (n = 290,000). fluorescence polarization. inhibition, % at 35 µM;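 active = 50% or more with normal probe brightness, or confirmed in later tests; about a fifth of its hits are not listed in these tables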;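 note: calls also rest on retests at 20 µM and on dose response follow-up; controls were probe without protein and protein plus probe with vehicle; some compounds called inactive have numbers as strong as hits; many hits fall short of the cut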
eIF4H FP inh – inhibitors of RNA binding by human eIF4H; Q15056; eIF4H fluorescence polarization binding assay; inhibition, % at 35 µM; actives 0.94% (n = 290,000);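 active = 50% or more with normal probe brightness, or confirmed in later tests; about a fifth of its hits are not listed in these tables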;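 note: calls also rest on retests at 20 µM and on dose response follow-up; 0% = protein and probe with vehicle and 100% = probe without protein; strong numbers were not always called active; many hits fall short of the cut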
eIF4H FP inh retest – recorded beside eIF4H FP inh, whose call it bears; inhibition, %; compound at 20 µM; confirmation average;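 mean of two retest wells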
PABP FP inh retest – further read-out of PABP FP inh, marked with its call; inhibition, %; compound at 20 µM; confirmation repeats;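 mean of two retest wells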
MT1-MMP act inh RFP – also measured in MT1-MMP act inh; calls as there; RFP signal change, %; measured here: RFP expression control read;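 0 = vehicle wells; hits needed this value within 50% of zero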
* = called active by the depositor; i = inactive; . = not tested or not shown.

SMILES	UUG fidelity	HIV Env fusion	Rce1 inhib	CSC inhib	MT1-MMP act inh	MT1-MMP act inh RFP	PABP FP inh	eIF4H FP inh	others
Cc1coc2cc3oc(=O)cc(C)c3cc12	-3	-306	i	17	-8	-1	-2	-14
CCN(Cc1ccccc1)S(=O)(=O)c1ccc(C(=O)N(CCCN(C)C)c2nc3cc4c(cc3s2)OCO4)cc1	7	10	i	-19	3	-1	-16	-2
CCc1ccccc1N=Cc1c(C)c(C#N)c2[nH]c3ccccc3n2c1=O	-12	-10	.	.	-9	1	.	.
COc1ccc(-c2nnn(CCc3nn[nH]n3)n2)cc1	-3	.	i	4	4	2	.	.
CC1CCC(N2CCN(S(C)(=O)=O)CC2)CC1 (stereo unspecified)	-15	-11	i	-5	2	4	10	-2
CN(CC(=O)Nc1ccc(F)c(Cl)c1)S(=O)(=O)c1cccc2nsnc12	-12	41	i	-9	2	-1	12	6
Cc1c(C(=O)O)[nH]c2c1C(=O)CC(c1ccc(Cl)cc1)C2 (stereo unspecified)	-13	.	i	-7	1	0	2	-3
CC(C)CNC(=O)c1cccc(NC(=O)CCc2ccccc2)c1	-8	0	i	-11	1	-2	-16	4
O=S(=O)(Nc1nccs1)c1ccc2c(c1)OCCO2	-20	-24	i	-1	-1	-3	6	-1
Cc1ccccc1OCCC(=O)Nc1ccc(F)c(Cl)c1	-15	-2	i	11	4	0	0	1
CCn1c(O)c(N=NC(=O)Cc2csc(N3CCOCC3)n2)c2ccccc21	.	0	i	-4	3	4	2	5
CCOc1c(C)cc(S(=O)(=O)NCc2cccnc2)c(C)c1C	-26	37	i	-8	4	-8	9	11
Cc1ccc(-n2nc3cc(C)c(N)cc3n2)cc1	.	.	i	12	-8	6	6	-11
CCOc1ccc(NC(=O)COC(=O)c2c(OC)cccc2OC)cc1	.	.	i	12	-3	-5	114	1	eIF4H FP inh retest=-19;PABP FP inh retest=-11
Cc1cccc(N(CC(N)=O)C2SC(=O)NC2=O)c1 (stereo unspecified)	-16	.	i	2	-1	5	6	2
CCOc1ccc(-c2n[nH]c(=S)c3ccccc23)cc1	-13	-2	i	23	1	-8	10	-2
CCOC(=O)c1c(C)[nH]c(C)c1C(=O)COC(=O)c1ccc(OC)cc1	.	18	i	-10	0	3	4	-5
CCCN(CCC)CCSc1nc(O)c(C(C)C)c(=O)[nH]1	-14	-44	.	-21	9	6	-1	-2
CCOC(=O)c1cnc(SCC(=O)N2CCc3ccccc32)nc1N	-9	.	i	14	-1	-4	0	-3
c1ccc(SSc2ccccn2)nc1	0	.	i	-11	2	-1	.	.
CCC1CCCCN1CCCCOc1cccc(Cl)c1 (stereo unspecified)	-13	5	i	0	8	6	8	-1
O=C(CN(C(=O)c1csnn1)c1ccccc1F)NCc1ccccc1	-16	6	i	-4	3	2	-3	-8
CCCOc1ccc(C2C(C(=O)OC)=C(C)N=C3SCCC(=O)N32)cc1OCC (stereo unspecified)	1	.	i	14	4	-5	-11	-4
CCCCc1nc2cc(C(=O)N3CCN(c4nc(C)cnc4C)CC3)ccc2o1	12	-19	i	-8	1	-8	2	-7

Next part; it opens with the three that closed the last part.
SMILES	UUG fidelity	HIV Env fusion	Rce1 inhib	CSC inhib	MT1-MMP act inh	MT1-MMP act inh RFP	PABP FP inh	eIF4H FP inh	others
O=C(CN(C(=O)c1csnn1)c1ccccc1F)NCc1ccccc1	-16	6	i	-4	3	2	-3	-8
CCCOc1ccc(C2C(C(=O)OC)=C(C)N=C3SCCC(=O)N32)cc1OCC (stereo unspecified)	1	.	i	14	4	-5	-11	-4
CCCCc1nc2cc(C(=O)N3CCN(c4nc(C)cnc4C)CC3)ccc2o1	12	-19	i	-8	1	-8	2	-7
CCc1c(C)sc(NC(=O)Cn2nc(C(F)(F)F)c3c2CCCC3)c1C#N	-9	-52	i	9	-1	0	0	-2
CC1CCCCC1NC(=O)COc1ccc(C#N)cc1 (stereo unspecified)	-12	3	.	-2	0	0	.	.
O=C(CN1CCCC1)NCC(=O)Nc1ccc(F)cc1	-15	2	i	1	4	-1	-10	0
Cc1cc(SCc2ccc(Cl)cc2Cl)nc(=O)[nH]1	-14	9	i	62	-7	-5	2	6
O=C(CNC(=O)c1ccc2ccccc2c1)NC1CCCCC1	-15	-3	.	-12	5	-1	.	.
O=C(CN1CCN(C(=O)c2ccco2)CC1)Nc1ccc2c(c1)OCO2	.	.	i	2	3	2	.	.
FC(F)(F)c1ccccc1CNCc1ccncc1	-4	-11	i	12	0	-6	-3	-7
CCO[C@H]1OC(C(=O)N2CCOCC2)=C[C@@H](C2CC2)[C@@H]1CCCO	-10	-3	i	-16	0	6	-3	0
Cc1cc(S(=O)(=O)N2CCOCC2)ccc1OCC(=O)Nc1ccccc1F	-19	-15	i	32	5	5	8	1
CC(=O)Nc1ccc(NC(=O)CS(=O)(=O)Cc2ccccc2)cc1	-11	4	i	-5	-3	3	11	-3
O=c1[nH]cc(N2CCCCCC2)c(=O)[nH]1	-18	-15	i	-14	2	-2	12	2
CC(=O)N1CC[n+]2c(-c3ccc(Cl)cc3Cl)csc21	.	-16	i	7	-4	2	0	-4
O=C(CCCOc1ccc(Br)cc1)NNC(=O)c1ccncc1	.	.	i	-14	1	3	.	.
CCCCNc1c(N2CCN(C(=O)OCC)CC2)c(=O)c1=O	-8	-13	i	5	2	7	-14	-11
Nc1nnc(Cc2ccccc2)s1	-18	-4	i	-13	-1	1	-10	-5
Cc1cc(C(=O)COc2ccccc2[N+](=O)[O-])c(C)n1-c1cccc(S(=O)(=O)N2CCOCC2)c1	.	41	i	.	-1	-19	39	1
CC(CC(=O)NCc1ccc(F)cc1)c1ccccc1 (stereo unspecified)	-8	5	i	-8	-2	0	2	-6
Cc1nn(CC(=O)N2N=C(C(F)F)CC2(O)C(F)F)c(C)c1[N+](=O)[O-] (stereo unspecified)	.	-25	i	-3	2	6	8	-3
NC(=O)c1cnn2c(-c3cccc(C(F)(F)F)c3)ccnc12	-6	-1	i	-1	2	2	-14	10
Cc1ccc(S(=O)(=O)N2[C@@H](c3ccc(C(C)(C)C)cc3)C(C(=O)O)=CC[C@H]2c2ccc(Cl)c(Cl)c2)cc1	-10	3	.	.	-8	-10	.	.
CCOc1cc(/C=C(/C#N)C(=O)Nc2ccc(O)cc2)cc(Br)c1O	.	.	i	47	-176	5	31	14
COc1cccc(NC(=O)CN(C)C(=O)c2cc(-c3ccco3)nc3ccccc23)c1	-21	7	i	-6	-2	-1	.	.
CC(=O)N[C@@H](Cc1c[nH]c2ccccc12)C(=O)NCCc1ccc(S(N)(=O)=O)cc1	-14	-12	i	12	-3	0	12	-5
CCOC(=O)C1=C(C)C(c2ccccc2OC)NC(=S)N1 (stereo unspecified)	.	-14	i	-2	-6	1	-2	2
Cc1ccc(NC(=O)CN2C(=O)N/C(=C/c3ccc4c(c3)OCCO4)C2=O)cc1	-40	4	i	.	0	1	-4	0
COCCNC(=O)C[C@H]1C[C@H]2c3cc(NS(=O)(=O)c4ccc(F)cc4)ccc3O[C@H]2[C@H](CO)O1	4	-109	.	.	2	-3	.	.
O=C1CN(C(=S)Nc2ccc(OC(F)F)cc2)CCN1	.	8	i	-8	2	2	3	2
CCOC(=O)c1c(C)n(C)c2cc(Br)c(OC)cc12	.	-6	i	.	-2	-2	-2	-1
O=C(Nc1ccccc1)c1ccc(S(=O)(=O)N(CCO)CCO)cc1	-21	.	i	-2	3	1	-2	0
O=C(NC1CCN(S(=O)(=O)c2ccc(F)cc2)CC1)C1CCCCC1	-14	-10	.	-13	-2	-3	7	-18
Cc1ccccc1NCC(=O)N/N=C/c1c[nH]c2ccccc12	.	5	i	24	1	5	8	-4
C(=N\Nc1nc2ccccc2[nH]1)/c1ccncc1	.	7	i	2	5	5	-13	0
NC(=O)CN1CCN(S(=O)(=O)c2ccc(Cl)cc2)CC1	.	7	i	6	3	6	-4	10
CCN1C(=O)/C(=C2\SC(=S)N(NC(=O)c3cccnc3)C2=O)c2ccccc21	8	16	i	-12	0	1	18	-3
COc1ccc(C(=O)N[C@H](C(=O)NCc2ccc(C)cc2)C(C)C)cc1	5	-2	.	4	-7	-3	4	-4
Cc1ccc(NC(=O)CC(=O)Nc2ccc(C)cc2C)c(C)c1	-2	-13	i	-4	-4	0	-7	2

Quoted at random: 2 compounds from above.
SMILES	UUG fidelity	HIV Env fusion	Rce1 inhib	CSC inhib	MT1-MMP act inh	MT1-MMP act inh RFP	PABP FP inh	eIF4H FP inh	others
O=C(Nc1ccccc1)c1ccc(S(=O)(=O)N(CCO)CCO)cc1	-21	.	i	-2	3	1	-2	0
O=C(NC1CCN(S(=O)(=O)c2ccc(F)cc2)CC1)C1CCCCC1	-14	-10	.	-13	-2	-3	7	-18

Later entries:
SMILES	UUG fidelity	HIV Env fusion	Rce1 inhib	CSC inhib	MT1-MMP act inh	MT1-MMP act inh RFP	PABP FP inh	eIF4H FP inh	others
COc1ccc(C2(C)NC(=O)N(CC(=O)c3ccc4c(c3)OCO4)C2=O)cc1 (stereo unspecified)	-3	4	i	-5	-1	3	7	-3
CCNC(=S)Nc1scc(-c2ccccc2)c1C(=O)OCC	.	-58	i	14	2	1	-7	5
Cc1nnc(SCC(=O)Nc2sccc2C(N)=O)n1Cc1ccccc1	-8	.	i	-2	3	2	7	1
O=c1c2c([N+](=O)[O-])cc([N+](=O)[O-])cc2sn1Cc1ccccc1	-33	-20	i	41	0	0	16	-1
NS(=O)(=O)c1ccc(CNC(=O)c2ccc(Cl)c(S(=O)(=O)NCc3ccccc3)c2)cc1	-9	46	.	-20	3	-2	.	.
CC(=O)Nc1ccc(S(=O)(=O)Nc2cc(C)c(-n3nc4ccccc4n3)cc2O)cc1	0	30	i	-15	6	3	1	-1
COc1ccccc1NC(=O)C(CC(C)C)NC(=O)C1CCCCC1 (stereo unspecified)	-13	-29	i	-11	2	6	-2	-9
COc1cc(NC(=O)C2CCN(S(=O)(=O)c3cccc4nonc34)CC2)cc(OC)c1	-43	.	i	0	0	0	17	-1
CC(C)CCNC(=O)C1CCC(=O)N1C(C)C (stereo unspecified)	-16	-24	i	-3	8	3	0	0
O=Cc1cn(CC(O)Cn2cc(C=O)c3ccccc32)c2ccccc12	7	17	i	1	1	-5	1	-14
Cc1cc(C)n2c(SCC(=O)NC3CCCCC3C)nnc2n1 (stereo unspecified)	-15	-81	i	-5	-5	3	0	-10
Cc1cccc(C)c1NC(=O)CCCSc1nnnn1C	-11	-43	i	8	-2	-1	-7	3
COCCn1c(Sc2nc(C)cs2)nc2c1c(=O)[nH]c(=O)n2C	-10	-33	.	.	3	11	4	-9
Cc1cc(C(=O)COC(=O)c2ccc(O)cc2)c(C)n1CC(F)(F)F	-38	-146	.	-7	1	2	.	.
CCC(=NCc1ccco1)c1c(C(F)(F)F)[nH]n(-c2nc3ccccc3s2)c1=O	-26	-5	i	-5	-9	5	7	-5
Cc1[nH]c2ccccc2c1Cc1n[nH]c(=S)n1C	-16	.	i	4	3	2	3	52	eIF4H FP inh retest=7;PABP FP inh retest=-39
CCOC(=O)CSc1nc(C(C)C)nc2ccccc12	-21	50	i	-1	2	3	-11	0
O=C(CSc1nnnn1C1CCCC1)Nc1cccc(NC(=O)c2ccco2)c1	-8	.	i	-15	7	3	4	0
CN(Cc1cccs1)C(=O)CN1CCN(S(=O)(=O)c2ccc3c(c2)OCCCO3)CC1	-12	1	.	.	-1	-2	.	.
COc1ccc(CC(=O)Nc2ccc(S(=O)(=O)N3CCC(C)CC3)cc2)c(OC)c1	-4	.	.	-4	-2	-11	.	.
CCCCCN1CSC(=S)N(Cc2ccccc2)C1	.	32	i	.	4	8	3	1
COc1cc(OC)cc(C(=O)N2CCC(n3c(C)nc4cc(F)ccc43)CC2)c1	-18	-122	i	-1	-3	-5	-5	-4
O=[N+]([O-])c1cccc(/C=N/N=C\c2ccccc2)c1	9	6	i	3	3	0	6	0

Only part of the results is shown. The share of hits here may be higher or lower than overall.
